MT1-MMP act inh – blocks activation of human MT1-MMP; P50281; HT1080 RFP-PRO-GFP cells, GFP/RFP ratio fluorescence, overnight; percent of plate control window, DMSO zero; GFP/RFP ratio change, % at 20 µM; actives 0.061% (n = 360,000); AID 651647;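 active = GFP/RFP ratio change of at least 30% with cell ATP level not reduced by more than half and red fluorescence within 50% of control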; note: strong numbers were not always called active
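Material: RFP-PRO-GFP reporter HT1080 cells. Dosing: single-point 20 µM compound, 1% DMSO. Controls: DMSO and RFP-L50D-GFP cell wells. Timing: cells overnight before dosing, compound overnight, 37 °C, 5% CO2. Measure: GFP/RFP fluorescence ratio.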
Env fusion inh – HIV envelope-mediated fusion inhibition | HeLa-JRFL Env/CEM21 cell fusion, luciferase | inhibition, % at 12.3 µM | actives 1.1% (n = 360,000) | AID 651610;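 active = mean replicate inhibition score of at least 50 and every replicate individually at or above 50; inconclusive = only one of the two criteria met; inactive = mean below 50 and not all replicates reaching 50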;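 note: 0% = plate neutral controls and 100% = maraviroc near 300 nM; one replicate is shown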
Rce1 inh – yeast Ras-converting enzyme inhibition; Q03530; yeast membranes, quenched prenylated peptide cleavage fluorescence; calls only; actives 0.27% (n = 290,000);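 active = fall in fluorescence gain of 50% or more versus controls, with final raw signal at or below 3038400; inconclusive = same 50% fall but final raw signal above 3038400; inactive = fall in fluorescence gain under 50%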;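 note: plate controls were neutral control wells for no effect and wells lacking membranes for full effect; tested at 10 µM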
Target sequence (Q03530 whole entry, looked up): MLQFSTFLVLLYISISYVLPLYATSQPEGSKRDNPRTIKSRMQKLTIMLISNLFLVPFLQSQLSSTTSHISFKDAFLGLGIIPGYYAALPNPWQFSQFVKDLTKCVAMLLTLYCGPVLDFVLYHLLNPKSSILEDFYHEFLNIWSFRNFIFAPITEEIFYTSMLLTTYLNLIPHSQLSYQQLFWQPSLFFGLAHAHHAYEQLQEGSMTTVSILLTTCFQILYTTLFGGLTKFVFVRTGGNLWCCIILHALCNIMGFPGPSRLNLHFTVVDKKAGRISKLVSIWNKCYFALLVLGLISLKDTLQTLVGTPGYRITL
CSC inhib – blocks cancer stem cells; cancer stem cell-like cells viability, luminescence; inhibition, % at 7.5 µM; actives 1.1% (n = 300,000); AID 2717;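 active = mean at 75% or more and at least half the replicates too; inconclusive = mean and replicates disagree; tested in HMLE shEcad cells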;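 note: 0% = median of negative and 100% = median of positive control wells; the first replicate is given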
eIF4H inh – inhibitors of RNA binding by human eIF4H | actives 0.94% (n = 290,000) | eIF4H fluorescence polarization binding assay | inhibition, % at 35 µM;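 active = 50% or more with normal probe brightness, or confirmed in later tests; inconclusive = above 50% with abnormal brightness, or retests that disagree; inactive = below 50% or failed in later tests; about a fifth of its hits are not listed in these tables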;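 note: calls also rest on retests at 20 µM and on dose response follow-up; 0% = protein and probe with vehicle and 100% = probe without protein; strong numbers were not always called active; many hits fall short of the cut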
PABP FP inh – PABP-poly(A) binding inhibition | P11940 | PABP-poly(A) RNA binding, fluorescence polarization | inhibition, % at 35 µM | actives 1% (n = 290,000);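 active = 50% or more with normal probe brightness, or confirmed in later tests; inconclusive = above 50% with abnormal brightness, or retests that disagree; inactive = below 50% or failed in later tests; about a fifth of its hits are not listed in these tables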;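 note: calls also rest on retests at 20 µM and on dose response follow-up; controls were probe without protein and protein plus probe with vehicle; some compounds called inactive have numbers as strong as hits; many hits fall short of the cut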
Yeast UUG start – modulators of start codon recognition fidelity in yeast; S. cerevisiae UUG-firefly luciferase reporter, luminescence/redox ratio; AID 602363; actives 0.13% (n = 350,000); activity score, % at 18.7 µM;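 active = replicate mean at a twofold rise or more, about +100% in these data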;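 note: firefly luciferase made from a UUG start codon reports start codon fidelity; reporter light over untreated wells divided by growth signal over untreated wells; some hits fall short of that in this replicate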
eIF4H inh retest – second read-out of eIF4H inh, no call of its own (marks repeat the call); inhibition, %; compound at 20 µM; confirmation average;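 mean of two retest wells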
PABP FP inh retest – recorded beside PABP FP inh, whose call it bears; inhibition, %; compound at 20 µM; confirmation repeats;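 mean of two retest wells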
MT1-MMP act inh RFP – recorded beside MT1-MMP act inh, whose call it bears; RFP signal change, %; measured here: RFP expression control read;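 0 = vehicle wells; hits needed this value within 50% of zero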
Starred values were filed as active, the others as inactive; i = inactive; ? = inconclusive; nt = no result given. The list is partial; the hit share may differ from the screen's.

SMILES	MT1-MMP act inh	MT1-MMP act inh RFP	Env fusion inh	Rce1 inh	CSC inhib	eIF4H inh	PABP FP inh	Yeast UUG start	others
CCOC(=O)/C(C#N)=N/Nc1ccc(S(=O)(=O)N2CCc3ccccc32)cc1	-11	-26	-2	i	38	5	11	nt
CS(=O)(=O)N(CC(=O)N/N=C/c1ccc(OCC(=O)N2CCOCC2)cc1)c1ccccc1Cl	-1	-1	14	i	4	-2	24	nt
CCOc1cccc(C(=O)Nc2ccccc2OC(F)F)c1	-4	1	nt	i	-2	0	-1	5
CC(NC(=O)CC12CC3CC(CC(C3)C1)C2)C(=O)O (stereo unspecified)	-4	-2	nt	i	-11	0	4	-7
C=CCOCC(O)CS(=O)(=O)Cc1ccc(Cl)cc1 (stereo unspecified)	7	7	nt	i	0	-2	0	nt
CCOc1cc(/C=N/O)ccc1OCC(=O)Nc1cccc(C)c1	1	1	-19	i	7	-3	5	nt
COc1ccccc1N=Nc1ccc(N)c(C)c1	0	-6	-26	i	19	3	-2	17
Fc1ccccc1NC(=S)Nn1cnnc1	0	0	0	i	-12	-4	-4	-14
CCOC(=O)NC(=O)CSc1nc(C)cc(C)c1C#N	1	1	-32	i	-6	-2	-1	-8
C=CCN1C(=O)c2ccc(C(=O)NCCOc3ccccc3F)cc2C1=O	-1	-1	-3	i	0	nt	nt	-1
CC(=O)N1CCN(CC(O)COc2ccc(S(=O)(=O)N3CCOCC3)cc2)CC1 (stereo unspecified)	3	-3	-1	nt	nt	nt	nt	-14
CCCCc1c(O)nc2sc3cc(OC)ccc3n2c1=O	0	7	nt	i	-3	-8	19	-14
COc1cccc(C(=O)Oc2ccc3ccc(=O)oc3c2)c1	-9	-1	-2	i	-12	-7	-5	-17
Cc1ccc(-c2csc(-c3c[nH]c4ccccc34)n2)c(C)c1	-1	-3	nt	i	99*	-5	10	-11
O=C(NNC1=NC2(CCCC2)Cc2ccccc21)c1ccncc1	-3	4	7	i	-9	22	1	-15
COC(=O)c1cn(NC(=O)Cc2ccc(Cl)c(Cl)c2)c(=O)c2ccccc12	-1	-1	48	i	-6	-7	4	-8
Cc1cc(Cl)ccc1OCC(=O)NNC(=O)c1ccc(=O)[nH]c1	-1	-2	-11	nt	-9	nt	nt	-11
CCN(Cc1ccccc1)C(=O)C1CCC(CNc2c(N3CCOCC3)c(=O)c2=O)CC1 (stereo unspecified)	-3	3	-15	i	-2	4	10	-8
O=C(COc1ccccc1F)Nc1ccc2c(c1)CCC2	1	-2	-58	nt	-7	nt	nt	-6
C/C(=N\NC(=O)CCc1ccc(S(=O)(=O)N2CCOCC2)cc1)c1ccc(Br)cc1	2	-1	14	i	-8	-7	-13	-6

Reprinted from the part before: 2 compounds; new compounds follow.
SMILES	MT1-MMP act inh	MT1-MMP act inh RFP	Env fusion inh	Rce1 inh	CSC inhib	eIF4H inh	PABP FP inh	Yeast UUG start	others
O=C(COc1ccccc1F)Nc1ccc2c(c1)CCC2	1	-2	-58	nt	-7	nt	nt	-6
C/C(=N\NC(=O)CCc1ccc(S(=O)(=O)N2CCOCC2)cc1)c1ccc(Br)cc1	2	-1	14	i	-8	-7	-13	-6
O=C(Cc1cccs1)Nc1nnc(SCc2cccc3ccccc23)s1	-9	2	-4	i	-7	31	31	-17
Cc1cccc(NC(=O)c2cc([N+](=O)[O-])ccc2N2CCN(C)CC2)c1	0	2	16	i	-6	5	1	nt
CCOC(=O)C(=O)/C(=C\N(C)C)c1onc(-c2ccccc2)c1C(=O)OC	-2	4	nt	i	2	-5	10	nt
COc1ccc(S(=O)(=O)/N=C2/NC(=O)/C(=C\c3ccco3)S2)cc1	-6	8	8	i	22	90	-9	nt	eIF4H inh retest=1;PABP FP inh retest=-6
O=C(OCc1nnc(-c2ccccc2)o1)c1cccnc1Cl	3	7	8	i	-6	4	13	nt
Nc1ccccc1C(=O)NCc1ccc(F)cc1	2	0	0	i	-10	2	8	-18
O=C(O)COc1ccc(Br)cc1C(c1c(C(=O)O)[nH]c2ccccc12)c1c(C(=O)O)[nH]c2ccccc12	-4	4	nt	nt	-4	2	20	-1
O=C(Nc1ccccc1)c1cc(C2CCCN(C(=O)c3ccc4c(c3)CCO4)C2)on1 (stereo unspecified)	-2	1	-7	nt	nt	nt	nt	-9
CC1(C)C(=O)OC(C(=O)c2ccc(Cl)cc2)C(C)(C)C1=O (stereo unspecified)	5	8	36	i	6	6	-1	1
O=C(CSc1nc(=O)n(CCCN2CCOCC2)c2c1CCCC2)Nc1cccc(Cl)c1	-1	-2	-34	i	1	nt	nt	nt
CSc1nc2c(c(=O)n1C)SC(C)C2 (stereo unspecified)	3	8	-27	i	-11	-8	7	3
COc1ccccc1C(=O)NCCC(=O)Nc1nc2ccccc2[nH]1	-5	2	nt	i	5	nt	nt	-22
Cc1cc(C)n(-c2n[nH]c(C)c2[N+](=O)[O-])n1	-8	-1	-12	i	-1	-3	-6	nt
CC(C)(C)NC(=O)COc1ccc(CNn2nnnc2N)cc1	-4	-3	-34	nt	-6	-2	0	-23
Cc1cc(C)n(CCNS(=O)(=O)c2ccc(Cl)cc2)n1	-4	-1	7	i	4	1	6	1
C=CCON/C(CCC)=C1\C(=O)CC(C)(C)CC1=NC	4	3	3	i	-12	-17	-5	nt
C=CCN(CC(O)c1cccc([N+](=O)[O-])c1)C(C)CCc1ccccc1 (stereo unspecified)	2	-2	32	i	21	2	10	nt
NNC(=O)c1csc(-c2cccc(C(F)(F)F)c2)n1	-2	2	-12	i	-6	6	4	nt
CC(C(=O)Nc1nccs1)N1C(=O)C2CC=CCC2C1=O (stereo unspecified)	0	0	nt	i	4	6	9	-9
O=C(/C=C/c1cccs1)NC1CC1	1	7	-4	i	-9	-7	8	nt

An excerpt from above in order of heavy-atom count, rising:
SMILES	MT1-MMP act inh	MT1-MMP act inh RFP	Env fusion inh	Rce1 inh	CSC inhib	eIF4H inh	PABP FP inh	Yeast UUG start	others
O=C(/C=C/c1cccs1)NC1CC1	1	7	-4	i	-9	-7	8	nt
CSc1nc2c(c(=O)n1C)SC(C)C2 (stereo unspecified)	3	8	-27	i	-11	-8	7	3
Cc1cc(C)n(-c2n[nH]c(C)c2[N+](=O)[O-])n1	-8	-1	-12	i	-1	-3	-6	nt
Nc1ccccc1C(=O)NCc1ccc(F)cc1	2	0	0	i	-10	2	8	-18
NNC(=O)c1csc(-c2cccc(C(F)(F)F)c2)n1	-2	2	-12	i	-6	6	4	nt
Cc1cc(C)n(CCNS(=O)(=O)c2ccc(Cl)cc2)n1	-4	-1	7	i	4	1	6	1
CC1(C)C(=O)OC(C(=O)c2ccc(Cl)cc2)C(C)(C)C1=O (stereo unspecified)	5	8	36	i	6	6	-1	1
O=C(OCc1nnc(-c2ccccc2)o1)c1cccnc1Cl	3	7	8	i	-6	4	13	nt
CC(C)(C)NC(=O)COc1ccc(CNn2nnnc2N)cc1	-4	-3	-34	nt	-6	-2	0	-23
COc1ccc(S(=O)(=O)/N=C2/NC(=O)/C(=C\c3ccco3)S2)cc1	-6	8	8	i	22	90	-9	nt	eIF4H inh retest=1;PABP FP inh retest=-6
C=CCN(CC(O)c1cccc([N+](=O)[O-])c1)C(C)CCc1ccccc1 (stereo unspecified)	2	-2	32	i	21	2	10	nt
O=C(Nc1ccccc1)c1cc(C2CCCN(C(=O)c3ccc4c(c3)CCO4)C2)on1 (stereo unspecified)	-2	1	-7	nt	nt	nt	nt	-9
O=C(CSc1nc(=O)n(CCCN2CCOCC2)c2c1CCCC2)Nc1cccc(Cl)c1	-1	-2	-34	i	1	nt	nt	nt
O=C(O)COc1ccc(Br)cc1C(c1c(C(=O)O)[nH]c2ccccc12)c1c(C(=O)O)[nH]c2ccccc12	-4	4	nt	nt	-4	2	20	-1

Continuation:
SMILES	MT1-MMP act inh	MT1-MMP act inh RFP	Env fusion inh	Rce1 inh	CSC inhib	eIF4H inh	PABP FP inh	Yeast UUG start	others
Cn1c2ccccc2c(=O)c2c(=O)n(Cc3ccco3)c(-c3ccc(C(C)(C)C)cc3)nc21	nt	nt	nt	i	18	74	-2	nt	eIF4H inh retest=-6;PABP FP inh retest=19
Cc1nn(Cc2c(F)c(F)c(F)c(F)c2F)c(C)c1NC(=O)c1ccnn1C	3	1	-11	i	-5	-1	-6	-15
COc1ccc(OC)c(N/C(C)=C/C(=O)c2ccncc2)c1	-1	-5	7	i	5	?	29*	-19	PABP FP inh retest=126*
Cc1noc(C)c1S(=O)(=O)Nc1cc(C(F)(F)F)ccc1N1CCOCC1	-3	-2	22	i	17	-4	0	nt
Cc1cccc(-n2nc3c(c2NC(=O)c2ccc(Br)o2)CSC3)c1C	9	-2	4	nt	nt	0	15	-15
Cc1cccc(C)c1N=C1C(=O)Nc2ccccc21	0	-9	-1	i	3	-8	5	-11
CCOC(=O)C1C(C(=O)Nc2cccc(C(F)(F)F)c2)C1C(=O)NC(C)C (stereo unspecified)	1	4	2	i	-7	5	10	nt
O=C(Nc1ccc(S(=O)(=O)N2CCOCC2)cc1)c1ccc(F)cc1	2	-6	16	i	-9	1	0	5
CSc1nn2c(C(F)(F)F)cc(C(F)(F)F)nc2c1C(N)=O	-1	-1	0	i	-10	1	2	nt
Fc1cccc(Cl)c1COc1ccc(-c2nnco2)cc1	3	1	-8	i	-14	3	-9	-7
CCS(=O)(=O)NCc1ccc2[nH]c3c(c2c1)CCCC3	nt	nt	nt	i	-1	33	46	nt
COc1ccc(C2CC(c3ccccc3OC(C)=O)=NN2C(=O)/C=C/c2ccccc2)cc1 (stereo unspecified)	1	-3	-32	i	-4	-4	-4	-13
CCC(CC)c1nnc(NC(=O)C2COc3ccccc3O2)s1 (stereo unspecified)	3	2	-176	i	6	0	-2	-21
COc1cc(N)ccc1Cc1ccc(N)cc1OC	-1	1	-2	i	7	17	1	-7
COc1ccccc1S(=O)Cc1ccc(C(=O)NCCc2ccc(Cl)cc2)o1 (stereo unspecified)	-2	-9	nt	i	1	-6	3	-1
Cc1cc(C)c(S(=O)(=O)C(C)C)c(=O)[nH]1	0	2	0	i	-1	7	-4	nt
COc1cc(OC)nc(Oc2ccccc2C(=O)Oc2ccccc2Cl)n1	6	5	nt	i	-4	-10	-8	-8
COc1ccc(-n2c(=O)c3ccccc3n(Cc3ccccc3F)c2=O)cc1OC	-2	-6	24	i	-27	-4	4	nt
CCCCNCC(=O)Nc1sc(C)c(C)c1C(=O)OCC	5	-3	nt	i	-7	6	-4	-7
O=C(CN1CCN(c2cccc(C(F)(F)F)c2)CC1)Nc1cccc(C(F)(F)F)c1	1	3	nt	i	56	15	14	5
CCC1Oc2ccc(Cl)cc2N(CC(=O)O)C1=O (stereo unspecified)	0	5	nt	i	-7	-12	-3	nt
CC(OC(=O)/C=C/c1ccccc1)C(=O)Nc1cccc(C#N)c1 (stereo unspecified)	4	1	-30	i	5	nt	nt	nt
Cc1ccc(NC(=O)c2ccccc2F)nc1	2	3	-86	i	4	-1	6	-13
NC(=O)N/N=C/c1ccc(-n2nncc2-c2ccc(Cl)cc2)cc1	-5	-6	3	i	nt	-9	8	-16
Cc1ccc(S(=O)(=O)N2CCN(S(C)(=O)=O)C2c2ccccc2)cc1 (stereo unspecified)	5	1	nt	i	1	-5	-12	-10

Screening data from PubChem.
